Cruzain Triton – qHTS Assay for Promiscuous and Specific Inhibitors of Cruzain (with detergent). Potency, µM, for the others: max response, negative = inhibition, hits mostly inhibitors. purified cruzain, Z-FR-AMC fluorescence, 0.01% Triton. 0.43% of 200,000 active; active means well fitted curve in the direction sought with a large enough effect; inconclusive means small, poorly fitted or top-dose-only effect, or another doubt; inactive means no such curve, though single readings can be large; an effect the other way counts as inactive or inconclusive;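 further: plate controls were neutral wells for no effect and buffer without enzyme for full effect; nearly all actives have a fitted effect of over 40% in size; top concentration of the series not given in the record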
Target sequence (P25779 123-467 limits assumed): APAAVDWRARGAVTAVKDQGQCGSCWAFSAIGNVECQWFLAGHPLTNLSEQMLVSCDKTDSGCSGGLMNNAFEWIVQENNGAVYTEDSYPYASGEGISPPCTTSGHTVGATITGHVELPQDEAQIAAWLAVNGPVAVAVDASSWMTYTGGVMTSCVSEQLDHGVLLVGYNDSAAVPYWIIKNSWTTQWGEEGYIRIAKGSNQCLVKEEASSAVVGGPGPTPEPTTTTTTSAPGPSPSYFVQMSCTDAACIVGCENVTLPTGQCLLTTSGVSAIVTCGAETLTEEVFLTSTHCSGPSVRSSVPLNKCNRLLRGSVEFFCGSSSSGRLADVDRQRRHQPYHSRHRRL
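Compounds were screened in titration against cruzain (1.5 nM) with 0.01% Triton X-100 to counter colloidal aggregation. Activity was the AMC fluorescence increase over 60 s after adding 2 uM Z-FR-AMC at pH 5.5.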
SARS PLP yeast – qHTS of Yeast-based Assay for SARS-CoV PLP; S. cerevisiae expressing SARS-CoV PLpro, growth rescue; control for the full effect not named in the record; Potency, µM (doses to about 32.9 µM), inactives show at the highest dose activity, positive = growth rescue; 0.19% of 330,000 active; AID 485353, 2010; further: 0% is about no effect; nearly all actives have a fitted effect of over 55% in size; growth read by luminescence after 48 h
RE007 growth inh – qHTS Assay for Inhibitors of the HIV-1 protein Vpr; S. pombe RE007 Vpr strain, BacTiter-Glo ATP luminescence, 24 h; control for the full effect not named in the record; 0.21% of 360,000 active; Potency, µM (doses to about 92.2 µM), for the others: at the top dose activity change, negative = less growth; active = well fitted falling curve with a large enough effect; inconclusive = small, poorly fitted or top-dose-only effect; inactive = no such curve, though single readings can be large or run the other way;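 further: on the % scale 0 is the no-effect control and ±100 the full control effect; nearly all actives have a fitted effect of over 50% in size; the assay follows cell death caused by Vpr and the record does not say whether a fall means rescue or toxicity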
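Fission yeast strain RE007, carrying one chromosomally integrated HIV-1 vpr copy, was seeded at OD 0.01 in PMG+AL medium with 23 nL pinned compound. After 24 h at 30 °C and 99% humidity, viability was read by BacTiter-Glo luminescence.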
NS1 inh – qHTS Assay for Inhibitors of Influenza NS1 Protein Function | S. cerevisiae slowed by influenza A NS1, growth recovery by OD600 | Potency, µM (doses to about 46.1 µM), for the others: at the highest dose activity, positive = more growth | 0.4% of 270,000 active; further: actives are rising curves; nearly all actives have a fitted effect of over 50% in size
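S. cerevisiae expressing influenza A NS1, grown in glucose, washed, then diluted 1:100 into pH 6.0 -URA galactose medium with 23 nl compound. Growth recovery read as OD600; NS1-free strain serves as control.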
LASV entry inh – qHTS for Inhibitors of binding or entry into cells for Lassa Virus | 1.2% of 300,000 active | Lassa virus pseudotype entry inhibition, cell reporter; control for the full effect not named in the record | Potency, µM (top dose mostly 37.9 µM), for inactives: at the highest dose activity change, negative = inhibition, hits mostly inhibitors | AID 540256, 2011; active means well fitted inhibition curve with a large enough effect; inconclusive means small, poorly fitted or top-dose-only effect, or effect the other way; inactive means flat fitted curve, though single readings scatter; tested in HEK293 cells; further: on the % scale 0 is the no-effect control and ±100 the full control effect; nearly all actives have a fitted effect of over 50% in size; luciferase read-out
StopGo reporter – High Throughput Screening for Foot and Mouth Disease Virus Antivirals; human cells with a luciferase reporter of 2A StopGo recoding; control for the full effect not named in the record; Potency, µM (highest dose often 57.9 µM), for the others: at the top dose signal change, negative = less light; 1.2% of 410,000 active; active = well fitted falling curve with a large enough effect; inconclusive = small, poorly fitted or top-dose-only effect; inactive = no such curve, though single readings can be large or run the other way; tested in HEK293T cells; further: on the % scale 0 is the no-effect control and ±100 the full control effect; nearly all actives have a fitted effect of over 45% in size; luciferase light after 4 h
Cruzain inh noDet – qHTS Assay for Promiscuous and Specific Inhibitors of Cruzain (without detergent); purified cruzain, Z-FR-AMC fluorescence, no detergent; Potency, µM, inactives show max response, negative = inhibition, usual class: inhibitors; 2.3% of 200,000 active; active means well fitted curve in the direction sought with a large enough effect; inconclusive means small, poorly fitted or top-dose-only effect, or another doubt; inactive means no such curve, though single readings can be large; an effect the other way counts as inactive or inconclusive;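 further: plate controls were enzyme without inhibitor for no effect and buffer without enzyme for full effect; nearly all actives have a fitted effect of over 40% in size; top concentration of the series not given in the record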
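Purified cruzain at 1.5 nM, pre-incubated 15 min with compound at room temperature in 100 mM sodium acetate pH 5.5, 5 mM DTT, 0.00005% Triton X-100. Reaction started with 2 uM Z-FR-AMC; AMC fluorescence increase over 60 s gives rate.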
MARV entry inh – qHTS for inhibitors of binding or entry into cells for Marburg Virus; Marburg virus pseudotyped entry inhibition, cell reporter; control for the full effect not named in the record; about a third of the inactives were read at about 46 µM; Potency, µM (doses to about 37.8 µM), without a hit: top-dose activity change, negative = inhibition, most hits filed as inhibitors; 1.8% of 300,000 active; AID 540276, 2011; active = well fitted inhibition curve with a large enough effect; inconclusive = small, poorly fitted or top-dose-only effect, or effect the other way; inactive = flat fitted curve, though single readings scatter; tested in HEK293 cells; about a fifth of its hits are not listed in these tables; further: on the % scale 0 is the no-effect control and ±100 the full control effect; luciferase read-out
An asterisk follows results filed as active; ? = inconclusive; . = not tested or not shown; [ ] = another dose, or the depositor's remark. Unless noted, the call rests on the fitted dose curve; in most records, active means well fitted rising curve with a large enough effect; inconclusive means small, poorly fitted or top-dose-only effect; inactive means no such curve, though single readings can be large or run the other way. Potency means the concentration at half of the fitted maximal effect.

SMILES	Cruzain Triton	SARS PLP yeast	RE007 growth inh	NS1 inh	LASV entry inh	StopGo reporter	Cruzain inh noDet	MARV entry inh
CCSc1nnc(NC(=O)c2ccc3nc[nH]c3c2)s1	.	4%	-20%	.	?	60%[activator]	.	-18%
COc1ccccc1NC(=O)COC(=O)C1CC2C=CC1C2 (stereo unspecified)	.	-4%	1%	-4%	?	-2%	.	19%[46.1 µM]
CCN(Cc1ccccc1)C(=O)c1ccc(CS(=O)c2ccccc2C)o1 (stereo unspecified)	.	6%	-16%	4%	.	-3%	.	.
CCOC(=O)CSC1=C(C#N)C(c2ccc3c(c2)OCO3)CC(=O)N1 (stereo unspecified)	2.4%	.	7%	-22%	-29%	-28%	-2%	16µM*
COc1ccccc1NC(=O)CSC1=Nc2ccccc2C2=NC(CC(=O)NCc3ccc4c(c3)OCO4)C(=O)N12 (stereo unspecified)	-3.9%	.	.	.	-16%[46.1 µM]	-14%	16%	.
Cc1ccc2nc(/C(C#N)=C\c3cc(C)n(-c4cccc([N+](=O)[O-])c4)c3C)[nH]c2c1	4.4%	-3%	-2%	18%	?	-20%	25µM*	?
COc1ccc2c(c1)C(=NNC(=O)c1ccccn1)c1cc(OC)ccc1-2	0.6%	-13%	23%	-10%	2%	-22%	3%	?
COc1ccc(OCc2ccc(-c3nc(C#N)c(N4CCC(C)CC4)o3)o2)cc1	-16%	.	.	.	?	-22%	?	-10%[46.1 µM]
O=C(NC1CCN(C(=O)Nc2cccc(F)c2)CC1)c1ccco1	.	2%	-1%	5%	2%[46.1 µM]	-5%	.	?
O=C(CCCCCn1nnc2ccccc2c1=O)N[C@H](C(=O)O)c1ccccc1	.	0%	-12%	-2%	9%	-12%	.	3%[46.1 µM]
COCCN1CN=C(Nc2nc3ccccc3s2)NC1	?	-4%	-1%	-7%	19%	25%	16µM*	11%
Cc1ccc(NC(=O)CCC(=O)Nc2nnc(C3CCCCC3)s2)cc1	.	1%	-2%	14%	24%[46.1 µM]	12%	.	14%[46.1 µM]
COc1cccc(-c2nc3ccccc3c(=O)n2NC(=O)c2cccnc2Cl)c1	-1.9%	-15%	-3%	9%	.	11%	-6%	.
COc1ccccc1C1N(c2ccc(F)cc2)C(=O)C2CCCN21 (stereo unspecified)	-3.4%	1%	2%	-3%	?	12%	-12%	-3%
CC1=C(C(N)=O)C(c2cccc(O)c2)n2nc(CCCO)nc2N1 (stereo unspecified)	-0.3%	2%	0%	-9%	.	-22%	-12%	.
CC(C)Cc1nc2oc3c(NCCCN4CCOCC4)ncnc3c2c2c1CCC2	2.6%	1%	-5%	-7%	?	-3%	-9%	?
CCn1c(SCC(=O)c2ccccc2)nnc1-c1ccoc1C	-0.2%	-4%	-6%	-6%	2%	32%[activator]	1%	?
O=C(C1CCCCN1S(=O)(=O)c1ccccc1)N1CCN(Cc2ccccc2)CC1 (stereo unspecified)	-3.0%	-3%	-2%	4%	-19%	-29%	-3%	-12%
CCn1cc(C2=NC(c3ccccc3)CO2)c2ccccc21 (stereo unspecified)	-5.2%	?	-19%	-117%	0%	-14%	-4%	-9%
O=C(NCCCSc1ccccc1)c1cccnc1	.	-2%	9%	10%	19%[46.1 µM]	-5%	.	11%[46.1 µM]
COc1ccc(CN(C)CC(O)COc2ccc(-c3ccccc3)cc2)cc1OC (stereo unspecified)	.	-18%	-10%	-5%	?	-14%	.	?
Cc1ccc(CCNC(=O)C2CCN(S(=O)(=O)N3CCCC3)CC2)cc1	3.1%	7%	1%	-2%	-29%	.	1%	15%
Cc1ccc(C)c(N2CCN(C(=O)CCc3nc(-c4cccc(C(F)(F)F)c4)no3)CC2)c1	.	-13%	1%	.	.	15%	.	-2%
Cc1ccc(CSCCNC(=O)CSc2ccccc2)cc1	-6.0%	-15%	-10%	-14%	-13%	0%	-4%	?
Cc1nn(CC(=O)Nc2c(C)n(C)n(-c3ccccc3)c2=O)c(C)c1[N+](=O)[O-]	.	0%	-17%	.	26%	-16%	.	5%
CCOc1ccc2nc(NC3=NC(c4ccc(OC)cc4)CC(=O)N3)nc(C)c2c1 (stereo unspecified)	8.9µM*	5%	-16%	?	?	.	?	?
Cc1ccc(-c2nc(C)c(CCNC(=O)C(=O)Nc3ccc4c(c3)OCCO4)s2)cc1	-1.5%	.	.	.	3%[46.1 µM]	-18%	-7%	.
Cc1cccc(N2CCN(S(=O)(=O)c3c(C)[nH]c(C)c3C(=O)N3CCCCC3)CC2)c1C	.	3%	-1%	10%	?	9%	.	?
CC(C)CN(C(=O)c1ccc(-n2cncn2)c([N+](=O)[O-])c1)C1CCS(=O)(=O)C1 (stereo unspecified)	.	-1%	-20%	.	4%[46.1 µM]	0%	.	-7%
Cc1ccc(-c2nn3cnnc3c3ccccc23)cc1	.	-8%	11%	.	-8%[46.1 µM]	-12%	.	6%[46.1 µM]
Cc1ccc(C(=O)OCC(=O)N(CC(C)C)c2c(N)n(Cc3ccccc3)c(=O)[nH]c2=O)cc1[N+](=O)[O-]	.	2%	0%	.	?	-17%	.	0%[46.1 µM]
S=C(Nc1ccccc1)N1CCN(C2CCCCC2)CC1	0.3%	1%	-3%	-1%	21%	11%	-1%	13%
CCOc1ccc(CNS(=O)(=O)c2ccc3c(c2)CCCN3C(C)=O)cc1	-1.2%	.	.	.	?	-16%	-1%	.
O=C(Nc1ccc(N2CCN(C(=O)c3cccs3)CC2)cc1)c1ccc(F)cc1	.	-2%	-14%	5%	16%[46.1 µM]	-17%	.	?
CCCCNC(=O)C1CCN(S(=O)(=O)N2CCOCC2)CC1	.	2%	6%	.	18%[46.1 µM]	-7%	.	4%[46.1 µM]
CN(C(=O)c1nn(C)c2c1CSc1ccccc1-2)c1ccccc1Cl	.	7%	-12%	-3%	.	-18%	.	.
O=C(c1cc2ccccn2n1)N1CCN(c2cccc(C(F)(F)F)c2)CC1	-0.5%	-5%	7%	-8%	-5%	?	6%	0%
Cc1cc(Nc2cccc(C)c2C)n2ncnc2n1	3.6%	7%	0%	12%	-17%	-9%	-1%	-12%
CCOc1ccc(NC(=O)CN2CCN(CC(=O)Nc3ccc(C(=O)OC)cc3)CC2)cc1	-5.5%	-12%	21%	-24%	9%	-21%	-18%	?
O=C(Cn1nc(C(=O)O)c2ccccc2c1=O)Nc1nc(-c2ccccc2)cs1	.	1%	-2%	3%	.	29%	.	.
CN(CC1CCOCC1)C(=O)CC1C(=O)NCCN1Cc1ccccc1F (stereo unspecified)	.	-5%	-22%	-3%	8%	-2%	.	?
O=[N+]([O-])c1cc(-c2nc(-c3cccnc3)no2)ccc1NCc1ccccc1	-13%	.	.	.	-11%[46.1 µM]	-22%	-20%	?
CCOc1ccc(NC(=O)CN2CCSc3ccc(S(=O)(=O)N4CCCC4)cc32)cc1	-11%	.	.	.	-10%[46.1 µM]	-1%	-2%	.
COc1ccc(-c2nnc(SCC(=O)Nc3ccc4c(c3)OCCO4)n2N)cc1OC	0.9%	-2%	16%	3%	8%	24%	-3%	2%
CCn1nc(C(=O)NNC(=O)CCOc2cc(C)ccc2C)c2ccccc2c1=O	.	14%	-6%	1%	15%	-20%	.	1%
COc1ccccc1N/C(=N/S(=O)(=O)c1ccc(Cl)cc1)c1ccccc1	-3.7%	-12%	18%	-15%	-3%	33%[activator]	4%	23%
CCC1CCc2sc(C(=O)NC3CCN(Cc4ccccc4)CC3)cc2C1 (stereo unspecified)	.	-2%	0%	.	?	-24%	.	?
COc1ccc(/C=C/C(=O)Nc2cc(C)nn2-c2nc3ccccc3n2Cc2cccc([N+](=O)[O-])c2)cc1	0.0%	4%	-5%	6%	-1%	13%	7.9µM*	?
O=c1c2ccccc2nc(-c2ccccc2)n1-c1cccnc1	3.1%	1%	1%	-7%	14%	-4%	-3%	4%
COC(=O)c1cscc1NC(C)=O	1.4%	6%	3%	10%	5%	-5%	4%	4%
CCC(=O)n1nc(-c2ccc(Cl)cc2)nc1SC	-0.4%	-9%	?	-9%	0%	34%[activator]	4%	13%[46.1 µM]
CS(=O)(=O)c1ccccc1C(=O)Nc1ccc(-c2nc3ccccc3o2)cc1	.	-9%	-11%	-12%	.	11%	.	.
COc1ccc(Nc2cc(C)nc(-n3nc(C)cc3C)n2)cc1Cl	0.5%	.	.	.	?	-9%	14%	.
COC1CCN(C(=O)CC2C(=O)NCCN2CC(C)(C)C)CC1 (stereo unspecified)	.	1%	5%	-1%	24%	-14%	.	-1%
Cc1cc(C(=O)N2CCC(C)CC2)on1	.	2%	-3%	-4%	.	-25%	.	.
Cc1cc(C)cc(-c2nnc(SCc3ccc(C(=O)O)cc3)o2)c1	.	-1%	12%	0%	18%[46.1 µM]	-16%	.	4%[46.1 µM]
Cc1ccccc1Oc1ccccc1N	.	1%	6%	.	9%[46.1 µM]	-1%	.	5%[46.1 µM]
CC(=O)N=c1sc2cc(C)ccc2n1C	-1.9%	-2%	-17%	-11%	19%	.	-14%	9%
Clc1ccc(OC2CCN(Cc3nc(CC4CC4)no3)CC2)cc1	.	2%	-15%	-6%	?	-30%	.	?

3 compounds from above, arranged by SMILES length, high to low:
SMILES	Cruzain Triton	SARS PLP yeast	RE007 growth inh	NS1 inh	LASV entry inh	StopGo reporter	Cruzain inh noDet	MARV entry inh
CCOc1ccc2nc(NC3=NC(c4ccc(OC)cc4)CC(=O)N3)nc(C)c2c1 (stereo unspecified)	8.9µM*	5%	-16%	?	?	.	?	?
CN(CC1CCOCC1)C(=O)CC1C(=O)NCCN1Cc1ccccc1F (stereo unspecified)	.	-5%	-22%	-3%	8%	-2%	.	?
Cc1cc(Nc2cccc(C)c2C)n2ncnc2n1	3.6%	7%	0%	12%	-17%	-9%	-1%	-12%

Screens deposited in PubChem BioAssay by National Center for Advancing Translational Sciences (NCATS).
